RVFV N-RNA FP – inhibitors of RVFV nucleoprotein–RNA binding, primary screen, biochemical, fluorescence polarization; P21700; RVFV N-RNA binding; active compounds read low; % bound, % (no concentration beside the values); 20,000 compounds, 0.1% hits; AID 651828, 2012;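 active means between 0 and 58% in either replicate with normal brightness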;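 further: 100 nL library stock added to about 12 µL; 100% = protein and probe without compound and 0% = probe alone; numbers are from one replicate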
Target sequence (P21700 whole entry, looked up): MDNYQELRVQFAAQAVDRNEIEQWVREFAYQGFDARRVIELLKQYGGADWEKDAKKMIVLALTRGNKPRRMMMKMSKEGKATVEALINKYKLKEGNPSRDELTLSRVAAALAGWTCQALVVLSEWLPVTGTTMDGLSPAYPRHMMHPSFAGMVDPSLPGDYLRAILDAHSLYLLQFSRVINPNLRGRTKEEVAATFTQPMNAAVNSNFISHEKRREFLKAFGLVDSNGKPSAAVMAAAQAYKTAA
Starred values were filed as active, the others as inactive; & = joins results of further samples. An excerpt; count on the stated rates, not on these rows.

The opening eight records, ahead of the listing:
SMILES | RVFV N-RNA FP
CCc1noc(C)c1C(=O)Nc1cccc(Cn2cc(Cl)cn2)c1 | 92
COc1ccc(NC(=O)N2CCn3c2nc2ccccc23)cc1 | 93
COc1cc2nc(N(C)CCCNC(=O)C3CCCO3)nc(N)c2cc1OC (stereo not drawn) | 93&98
CS(=O)(=O)N(CC(=O)NC1CC1)c1ccccc1 | 95
C/C(=N\NC(=O)O)c1ccc(Oc2ccccc2)cc1 | 98
O=C(Nc1cccc(C(=O)Nc2ccc(S(=O)(=O)O)c3cc(S(=O)(=O)O)cc(S(=O)(=O)O)c23)c1)Nc1cccc(C(=O)Nc2ccc(S(=O)(=O)O)c3cc(S(=O)(=O)O)cc(S(=O)(=O)O)c23)c1 | 83
CC(C)(C)NC(=O)[C@@H]1Cc2ccccc2CN1 | 96
O=S(=O)(NN1CCOCC1)c1ccc2ccccc2c1 | 100

Results, repeating the preview:
SMILES | RVFV N-RNA FP
CCc1noc(C)c1C(=O)Nc1cccc(Cn2cc(Cl)cn2)c1 | 92
COc1ccc(NC(=O)N2CCn3c2nc2ccccc23)cc1 | 93
COc1cc2nc(N(C)CCCNC(=O)C3CCCO3)nc(N)c2cc1OC (stereo not drawn) | 93&98
CS(=O)(=O)N(CC(=O)NC1CC1)c1ccccc1 | 95
C/C(=N\NC(=O)O)c1ccc(Oc2ccccc2)cc1 | 98
O=C(Nc1cccc(C(=O)Nc2ccc(S(=O)(=O)O)c3cc(S(=O)(=O)O)cc(S(=O)(=O)O)c23)c1)Nc1cccc(C(=O)Nc2ccc(S(=O)(=O)O)c3cc(S(=O)(=O)O)cc(S(=O)(=O)O)c23)c1 | 83
CC(C)(C)NC(=O)[C@@H]1Cc2ccccc2CN1 | 96
O=S(=O)(NN1CCOCC1)c1ccc2ccccc2c1 | 100
CC1CCN(c2ccc(NC(=O)c3ccccc3)cc2)CC1 | 89
Cc1nc2cc(NC(=O)CCS(=O)(=O)c3ccccc3)ccc2s1 | 95
CCOc1ccc2[nH]c(S(=O)(=O)CC)nc2c1Cl | 83
CCCN1CCC(Nc2ccc(SC)cc2)CC1 | 95
O=C(N/N=C/c1ccccc1O)NC12CC3CC(CC(C3)C1)C2 | 92
COC(=O)c1sccc1NC(=O)CC1C(=O)NCCN1C(=O)Nc1ccccc1 (stereo not drawn) | 94
C/C(=N\OC(=O)Nc1c(-c2c(Cl)cccc2Cl)noc1C)C(C)(C)C | 89
COc1cc(/C=N/n2cnnc2)ccc1OCC(=O)N1CCOCC1 | 96
CCOc1cccc(C=Nc2ccc(Br)cn2)c1O | 99
CC1(C(=O)N2CCOCC2)Cc2ccccc2C(=O)O1 (stereo not drawn) | 94
CCCCCCCCCC[Si](C)(C)CCC(=O)NC(Cc1ccc(C)cc1)c1ccccc1 (stereo not drawn) | 96
O=C1Nc2ccccc2C12NNC(=S)NN2 | 101
O=C(O)CCC(=O)N1CCCC1C(=O)O (stereo not drawn) | 101
COc1ccc(C(=O)Cc2ccc(F)cc2)c(OC)c1 | 110
O=C(Cn1c(=O)n(-c2ccc(F)cc2)c(=O)c2oc3ccccc3c21)NC1CCCCC1 | 92
COc1ccc(C(=S)N2CCN(C(N)=S)CC2)cc1 | 97
O=c1nc(NCc2ccccc2)cn[nH]1 | 96
COc1ccccc1N1CCN(CCN(C(=O)C2CCCCC2)c2ccccn2)CC1 | 95
CC1(C)OC(CO)C(CO)O1 (stereo not drawn) | 100
CCOC(OCC)P(=O)(c1ccccc1)c1ccccc1 | 88
NNC(=O)c1nc(-c2ccccc2)cc(-c2ccccc2)n1 | 101
FC(F)(F)c1cc2[nH]c(=S)[nH]c2cc1Cl | 86
CCO/C=N/c1c(C#N)c2c(c(=S)n1C)COC(C)(C)C2 | 99
CCN(CC)c1nc(N)nc(Nc2ccc3cc(-c4ccccc4)c(=O)oc3c2)n1 | 102
CC(=O)NC1C2CN3CCN(C2)CC1(Cc1ccccc1)C3 (stereo not drawn) | 95
NC(=O)c1ccsc1NC(=O)COc1ccccc1 | 94
CCOC(=O)c1cc2c(ccc3ccccc32)o1 | 95
COc1ccc(Br)cc1-c1noc(C)n1 | 104
NS(=O)(=O)c1ccc(C(=O)O)cc1 | 97
CCOC(=O)c1cc(-c2ccnn2C(=O)c2ccc(C)cc2)on1 | 96
c1ccc(-c2csc(-c3ccc(-c4ccccn4)s3)n2)cc1 | 90
CCOc1ccc2c(c1)nc1n2C(=O)C(c2ccccc2)CS1 (stereo not drawn) | 91
O=C(Oc1ccc2ccc(=O)oc2c1)c1cccs1 | 97
C[C@]12C=CC(=O)C=C1CC[C@@H]1[C@@H]2[C@@H](O)C[C@@]2(C)[C@H]1CC[C@]2(O)C(=O)COC(=O)CCC(=O)O | 100
O=c1[nH]nc(-c2ccc(F)cc2)cc1Cc1ccco1 | 93
CCCCCN(C)CCC(O)(P(=O)(O)O)P(=O)(O)O | 105
Cc1cc(C)cc(NC(=O)Nc2cc(-c3ccccc3)nn2C)c1 | 98
Cc1nnc(NC(=O)c2ccc(S(=O)(=O)N3CCCC3)cc2)o1 | 100
Cc1ccc2c(c1)c1c(n2CC2COC(C)(C)O2)C(=O)CCC1 (stereo not drawn) | 98
Cc1nnc(SCC(=O)N2CCc3ccccc32)[nH]c1=O | 94
CCN(CC)c1ccc(C=Nc2ccc(C#N)cc2)cc1 | 94
CCN(CC)Cc1nc2ccccc2c(=O)n1-c1ccc(F)cc1 | 87
CCOC(=O)c1[nH]nc(N)c1-c1cccc(OC)c1 | 98
O=C(/C=C/Sc1nc2ccccc2o1)c1ccccc1 | 98
O=C1CN(C(=O)c2ccccc2)C(=S)N1 | 102
COc1ccc(C(=O)N2CCCc3ccccc32)cc1 | 82
CCN(CC)C(=O)COc1coc(CN2CCc3ccccc3C2)cc1=O | 97
O=C(O)c1cc(C(=O)O)c(-c2ccccc2)c(C(=O)O)c1 | 102
O=C(Nc1nnnn1/N=C/c1ccccc1F)c1ccc(F)cc1 | 101
COCc1cc(C)n(CC(=O)OC)c(=O)c1C#N | 100
CN1CCC[C@H]1c1cccnc1 | 99
C#CCn1c(=NC(=O)CN2C(=O)CCC2=O)sc2c3ccccc3ccc21 | 98
Next records
SMILES | RVFV N-RNA FP
O=C(c1ccccc1)c1ccc(N2CCOCC2)cc1O | 96
CC1CC(C)CN(Cc2cn3c(-c4ccc(Br)cc4)nnc3s2)C1 (stereo not drawn) | 94
CCc1ccc(S(=O)(=O)N2CCn3cccc3C2c2ccc(Cl)cc2)s1 (stereo not drawn) | 93
CN(CCC#N)C(=O)c1cc2cccnc2n(Cc2ccccc2)c1=O | 92
Cc1sc(NC(=S)NC(=O)c2ccco2)c(C#N)c1C | 99
C[N+](C)(C)[C@@H](Cc1c[nH]c(=S)[nH]1)C(=O)[O-] | 92
Cc1cc(C)cc(N2CC(c3nc4ccccc4n3C(C)C)CC2=O)c1 (stereo not drawn) | 101
O=C(Oc1ccc2oc3c(c2c1)CCCC3)c1cccs1 | 104
O=c1[nH]c(=O)n(C2CC(O)C(CO)O2)cc1F (stereo not drawn) | 101
Cc1nc(COc2cccc(Cl)c2)sc1-c1ccnn1C(=O)C1CC1 | 90
CNC(=S)Nc1ccc(C(=O)OC)cc1 | 110
CC(=O)N(C)c1ccc(N=Cc2ccc(O)cc2)cc1 | 98
CN1C(=O)c2ccc(-c3ccc(C=C4C(=O)NC(=O)NC4=O)o3)cc2C1=O | 93
CN(C)CCNC(=S)Nc1ccc(F)c(Cl)c1 | 94
O=C(CSc1nnc(-c2cccnc2)o1)NCCc1ccccc1 | 98
Cn1c(C(O)c2ccccc2)nc(Cl)c1Cl (stereo not drawn) | 91
O=C(Nc1ccc(Cl)cc1)O/N=C1\CCCCC1Cn1ccnc1 (stereo not drawn) | 93
NC(=O)c1ncoc1-c1ccccc1Cl | 101
O=C(Nc1nnc(SCc2ccccn2)s1)C1CC(=O)N(c2ccccc2)C1 (stereo not drawn) | 107
CNC(=S)N(Cc1ccccc1)Cc1cccnc1 | 96
C=CCN(C(=O)Nc1ccccc1)C1CC(=O)N(c2ccc(OC)cc2)C1=O (stereo not drawn) | 92
O=C(Nc1ccc(F)cc1)Nc1ccc(N2CCOCC2)c2nonc12 | 95
N=c1c2c(n(Cc3ccc(F)cc3)c3c1CCC3)CCC2 | 99
Cc1cc(C(=O)NN2CCOCC2)cs1 | 95
COc1cc(CN(CCN(C)C)Cc2ccccc2)cc(OC)c1 | 97
CCCN(CCC)C(=O)c1cc(Cl)ccc1OC | 95
O=C(NC1CCCC1)c1cc(=O)[nH]c2ccccc12 | 82
CNCC(O)c1ccc(O)cc1 (stereo not drawn) | 94&99&92
O=C1NC(=O)C(CCCCO)N1 (stereo not drawn) | 108
CC12NC(=O)CN1CCc1ccccc12 (stereo not drawn) | 95
CS(=O)(=O)Nc1ccccc1C(=O)NC1CCCC1 | 92
CN1CCN(C(CC(=O)Nc2cccc3ccccc23)C(=O)O)CC1 (stereo not drawn) | 99
CC(NC=O)c1nc2ccccc2n1Cc1ccccc1 (stereo not drawn) | 90
CN(C)CCCn1cc(C2=C(c3c[nH]c4ccccc34)C(=O)NC2=O)c2ccccc21 | 113
CCN1CCc2nc(N)oc2CC1 | 95
O=C(C1CC1c1ccccc1)N1CCOCC1 (stereo not drawn) | 95

An excerpt of these results, as comma-separated lines:
mol,RVFV N-RNA FP
COc1cc(CN(CCN(C)C)Cc2ccccc2)cc(OC)c1,97
CCCN(CCC)C(=O)c1cc(Cl)ccc1OC,95
O=C(NC1CCCC1)c1cc(=O)[nH]c2ccccc12,82
CNCC(O)c1ccc(O)cc1 (stereo not drawn),94&99&92
O=C1NC(=O)C(CCCCO)N1 (stereo not drawn),108
CC12NC(=O)CN1CCc1ccccc12 (stereo not drawn),95
CS(=O)(=O)Nc1ccccc1C(=O)NC1CCCC1,92
CN1CCN(C(CC(=O)Nc2cccc3ccccc23)C(=O)O)CC1 (stereo not drawn),99
CC(NC=O)c1nc2ccccc2n1Cc1ccccc1 (stereo not drawn),90
CN(C)CCCn1cc(C2=C(c3c[nH]c4ccccc34)C(=O)NC2=O)c2ccccc21,113
CCN1CCc2nc(N)oc2CC1,95
O=C(C1CC1c1ccccc1)N1CCOCC1 (stereo not drawn),95

Other entries.
SMILES | RVFV N-RNA FP
CC(C)(C)c1ccc(C(=O)N2CCN(c3cccc4[nH]ccc34)CC2)cc1 | 92
Cc1ccc(-c2nc3cc(NC(=O)CC(C)C)ccc3o2)cc1Cl | 92
CC1=CCC2C(=O)N(C(C)c3ccccc3)C(=O)C2C1 (stereo not drawn) | 96
CCC(C)(C)NC(=O)Cc1ccc(C)cc1 | 90
CCCC1COC(c2ccc(C#N)cc2)OC1 (stereo not drawn) | 99
O=C(Nc1ccccc1)C(=S)NCc1ccco1 | 88
CCN1C(=O)C(=Cc2cccn2C)C(=O)N(CC)C1=S | 101
COc1ccccc1/C=C\C=c1/sc2nc(-c3ccco3)nn2c1=O | 95
CC(=O)OCC[N+](C)(C)C | 106&97
O=C(Nc1ccc(O)c(C(=O)O)c1)c1ccc(Br)cc1 | 100
CCCCN1Cc2c(n(CC(N)=O)c3cc(-c4ccccc4)nn3c2=O)C1=O | 101
Cc1ccc(NC(=O)Nc2ccccn2)cc1 | 89
O=C(NCc1cccnc1)C(F)(F)C(F)(F)C(F)(F)F | 106
Cc1cccc(N(CC(=O)NCc2ccco2)S(=O)(=O)c2ccccc2)c1C | 93
CCN1CCN(S(=O)(=O)c2cc(OCC(=O)NC3CCCCC3)c(C)cc2Cl)CC1 | 97
CCC(CC)NC(=O)Cc1cccs1 | 100
Cc1cc(C)c(N2CC(=O)NCC2=O)c(C)c1 | 107
C=CCNC(=O)C1CCC(C(=O)NCC=C)CC1 (stereo not drawn) | 90
COc1ccc(/C=N\N2CCN(Cc3ccc(C)cc3)CC2)cc1OC | 102
CS(=O)(=O)c1ccccc1-c1nnc(NC(=O)COc2ccc(Cl)cc2)o1 | 94
O=S(Nc1ccc2c(c1)OCCO2)C12CC3CC(CC(C3)C1)C2 (stereo not drawn) | 92
Oc1ccc2c3c1O[C@H]1c4oc5ccccc5c4C[C@@]4(O)[C@@H](C2)N(CC2CC2)CC[C@]314 | 97
NC1=NN(c2c(Cl)cc(Cl)cc2Cl)C(=O)C1 | 103
CN(C)S(=O)(=O)c1ccccc1 | 106
CC(NC=O)c1nc2ccccc2n1C/C=C/c1ccccc1 (stereo not drawn) | 89
COc1cc(-c2nc3c(C(C)(C)C)cc(C(C)(C)C)c(O)c3o2)ccc1O | 108
O=S(=O)(Nc1ccc(Cl)cc1OC(F)(F)F)C(F)(F)F | 97
Cc1[nH]cnc1CN1CCCCCCC1 | 103
C[C@]12C=CC(=O)C=C1CC[C@@H]1[C@@H]2[C@@H](O)C[C@@]2(C)[C@H]1CC[C@]2(O)C(=O)CO | 94&95
C(/C=C/c1ccccc1)=N/N1CCN(c2ccccc2)CC1 | 89
CC1=C(C(=O)N(C)C)C(c2ccccc2)NC(=S)N1 (stereo not drawn) | 96
O=C(NCc1ccc(F)cc1)c1ccncc1 | 100
CC1CCCC(C)N1S(=O)(=O)c1ccc(NC(=O)CCn2cnc3ccccc3c2=O)cc1 (stereo not drawn) | 95
C(=NCCCN1CCOCC1)c1ccc2c(c1)OCO2 | 91
COc1ccc(N2CCN(Cc3ccc(C)o3)CC2)cc1 | 99
Cc1cnc(NC(=O)c2ccc3c(c2)OCO3)s1 | 95
Cc1ccc(C(=O)OCc2ccco2)cc1 | 103
Clc1ccc(COC(Cn2ccnc2)c2ccc(Cl)cc2Cl)c(Cl)c1 (stereo not drawn) | 97&94
NNC(=O)CCc1ccc(O)cc1 | 94
COc1ccc2[nH]c(S(=O)Cc3ncc(C)c(OC)c3C)nc2n1 (stereo not drawn) | 99
O=C1CC2(O)CCC1(c1ccccc1)CC2 | 100
CN(C)S(=O)(=O)c1ccc(C(=O)Nc2nnc(C3CC3)o2)cc1 | 107
COc1cc(/C=N/N=C2/SC(CC(=O)O)C(=O)N2C)cc(OC)c1OC (stereo not drawn) | 96
COc1ccc(C(=O)/C(Cc2cc(OC)c(OC)c(OC)c2)=C(\C(=O)O)c2ccc3c(c2)OCO3)cc1 | 98
N#Cc1nc(-c2cccc(Cl)c2)oc1NCCc1ccccc1 | 99
S=C(NC1CCCCC1)N1CCCCCC1 | 111
CCOC(=O)c1c(N)sc2c1CCN(C(=O)OCC)C2 | 90
O=c1c2ccccc2[nH]c(=S)n1CC1CCCO1 (stereo not drawn) | 87
